Cruzain Triton – cruzain (T. cruzi) inhibition with detergent; AID 1478; P25779; Potency, µM, without a hit: max response, negative = inhibition, most hits filed as inhibitors; actives 0.43% (n = 200,000); purified cruzain, Z-FR-AMC fluorescence, 0.01% Triton; active means well fitted curve in the direction sought with a large enough effect; inconclusive means small, poorly fitted or top-dose-only effect, or another doubt; inactive means no such curve, though single readings can be large; an effect the other way counts as inactive or inconclusive;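 further: plate controls were neutral wells for no effect and buffer without enzyme for full effect; nearly all actives have a fitted effect of over 40% in size; top concentration of the series not given in the record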
Target sequence (P25779 123-467 limits assumed): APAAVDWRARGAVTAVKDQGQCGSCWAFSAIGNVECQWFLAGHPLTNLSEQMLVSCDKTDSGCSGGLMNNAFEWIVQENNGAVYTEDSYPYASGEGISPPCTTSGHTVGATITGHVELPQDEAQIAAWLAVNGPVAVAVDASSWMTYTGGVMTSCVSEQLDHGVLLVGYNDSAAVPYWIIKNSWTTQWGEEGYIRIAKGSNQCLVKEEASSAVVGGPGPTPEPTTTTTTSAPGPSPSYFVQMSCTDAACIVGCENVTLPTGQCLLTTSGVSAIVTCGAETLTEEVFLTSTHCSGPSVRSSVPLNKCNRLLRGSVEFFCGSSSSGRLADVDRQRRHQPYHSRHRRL
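Compounds were screened in titration against cruzain (1.5 nM) with 0.01% Triton X-100 to counter colloidal aggregation. Activity was the AMC fluorescence increase over 60 s after adding 2 uM Z-FR-AMC at pH 5.5.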
RE007 growth inh – less growth of the S. pombe RE007 Vpr strain | S. pombe RE007 Vpr strain, BacTiter-Glo ATP luminescence, 24 h; control for the full effect not named in the record | Potency, µM (series often up to 92.2 µM), for the others: top-dose activity change, negative = less growth | actives 0.21% (n = 360,000) | AID 651644; active = well fitted falling curve with a large enough effect; inconclusive = small, poorly fitted or top-dose-only effect; inactive = no such curve, though single readings can be large or run the other way;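 further: on the % scale 0 is the no-effect control and ±100 the full control effect; nearly all actives have a fitted effect of over 50% in size; the assay follows cell death caused by Vpr and the record does not say whether a fall means rescue or toxicity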
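Fission yeast RE007 carrying one integrated HIV-1 vpr copy, seeded at OD 0.01 in PMG+AL medium with 23 nL pinned compound. Grown 24 h at 30 degrees; viability read by BacTiter-Glo luminescence after 5 min.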
SARS PLpro yeast – blocks SARS-CoV papain-like protease in a yeast assay; Potency, µM (highest dose often 32.9 µM), inactives show top-dose activity, positive = growth rescue; S. cerevisiae expressing SARS-CoV PLpro, growth rescue; control for the full effect not named in the record; actives 0.19% (n = 330,000); further: 0% is about no effect; nearly all actives have a fitted effect of over 55% in size; growth read by luminescence after 48 h
Cruzain inh noDet – inhibitors of Trypanosoma cruzi cruzain without detergent. purified cruzain, Z-FR-AMC fluorescence, no detergent. actives 2.3% (n = 200,000). P25779. AID 1476. Potency, µM, for inactives: max response, negative = inhibition, actives largely listed as inhibitors; active means well fitted curve in the direction sought with a large enough effect; inconclusive means small, poorly fitted or top-dose-only effect, or another doubt; inactive means no such curve, though single readings can be large; an effect the other way counts as inactive or inconclusive;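 further: plate controls were enzyme without inhibitor for no effect and buffer without enzyme for full effect; nearly all actives have a fitted effect of over 40% in size; top concentration of the series not given in the record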
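Detergent-free condition (0.00005% Triton X-100) in acetate buffer pH 5.5 with DTT. 1.5 nM enzyme and compound were pre-mixed 15 min, then 2 uM Z-FR-AMC substrate added; reaction progress from fluorescence change between first and third reads (60 s).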
LASV entry inh – blocks Lassa virus binding to or entry into cells; AID 540256; Lassa virus pseudotype entry inhibition, cell reporter; control for the full effect not named in the record; Potency, µM (highest dose often 37.9 µM), inactives show at the highest dose activity change, negative = inhibition, actives largely listed as inhibitors; actives 1.2% (n = 300,000); active means well fitted inhibition curve with a large enough effect; inconclusive means small, poorly fitted or top-dose-only effect, or effect the other way; inactive means flat fitted curve, though single readings scatter; tested in HEK293 cells; further: on the % scale 0 is the no-effect control and ±100 the full control effect; nearly all actives have a fitted effect of over 50% in size; luciferase read-out
StopGo reporter – lowers the luciferase signal of an FMDV 2A StopGo reporter | human cells with a luciferase reporter of 2A StopGo recoding; control for the full effect not named in the record | Potency, µM (doses to about 57.9 µM), for the others: at the highest dose signal change, negative = less light | actives 1.2% (n = 410,000) | AID 1159524; active = well fitted falling curve with a large enough effect; inconclusive = small, poorly fitted or top-dose-only effect; inactive = no such curve, though single readings can be large or run the other way; tested in HEK293T cells; further: on the % scale 0 is the no-effect control and ±100 the full control effect; nearly all actives have a fitted effect of over 45% in size; luciferase light after 4 h
NS1 inh – influenza NS1 inhibition. S. cerevisiae slowed by influenza A NS1, growth recovery by OD600. Potency, µM (series often up to 46.1 µM), for inactives: at the highest dose activity, positive = more growth. actives 0.4% (n = 270,000). AID 2326; further: actives are rising curves; nearly all actives have a fitted effect of over 50% in size
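S. cerevisiae expressing influenza A NS1, grown in glucose, washed, then diluted 1:100 into pH 6.0 -URA galactose medium with 23 nl compound. Growth recovery read as OD600; NS1-free strain serves as control.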
Marburg entry inh – blocks Marburg virus binding to or entry into cells; Potency, µM (doses to about 37.8 µM), for the others: at the highest dose activity change, negative = inhibition, usual class: inhibitors; actives 1.8% (n = 300,000); Marburg virus pseudotyped entry inhibition, cell reporter; control for the full effect not named in the record; about a third of the inactives were read at about 46 µM; active = well fitted inhibition curve with a large enough effect; inconclusive = small, poorly fitted or top-dose-only effect, or effect the other way; inactive = flat fitted curve, though single readings scatter; tested in HEK293 cells; about a fifth of its hits are not listed in these tables; further: on the % scale 0 is the no-effect control and ±100 the full control effect; luciferase read-out
* marks the source's active call; other numbers are inactive results; ? = inconclusive; / = no result given; & = joins results of further samples; [ ] = dose if it differs, or a comment. Unless noted, the call rests on the fitted dose curve; in most records, active means well fitted rising curve with a large enough effect; inconclusive means small, poorly fitted or top-dose-only effect; inactive means no such curve, though single readings can be large or run the other way. Potency means the concentration at half of the fitted maximal effect.

SMILES	Cruzain Triton	RE007 growth inh	SARS PLpro yeast	Cruzain inh noDet	LASV entry inh	StopGo reporter	NS1 inh	Marburg entry inh
COC(=O)CCCC1=CC2=CC(=O)C(C)(OC(=O)c3cccs3)C(=O)C2=CN1C1CCCCC1 (stereo unspecified)	/	9%	0%	/	?	-6%	-4%	19%&19%[14.2 µM]
CCCn1c(Nc2nc3ccccc3n2C)nc2ccccc21	-0.2%	?	-20%	20µM*	-14%	?	-189%	?
COCCN1C(=O)c2ccccc2C(C(=O)NCCCN2CCCC2=O)C1c1c[nH]c2ccccc12 (stereo unspecified)	-3.1%	-10%	-2%	17%	0%	-16%	-6%	5%[46.1 µM]
Cc1[nH]nc(-c2ccc(OCc3cnn(-c4ccccc4)c3)cc2O)c1Oc1ccc(Cl)cc1	-3.7%	9%	-3%	10µM*	-26%	?	23%	?
Cc1cc(Cl)c(S(=O)(=O)N2CC(C)OC(C)C2)cc1OCC(N)=O (stereo unspecified)	5.5%	-6%	2%	-2%	-15%	-20%	-1%	16%
COc1cccc(-n2cc(C(=O)NCCc3ccc(C)cc3)c3ccccc3c2=O)c1	0.3%	/	/	20%	-1%[46.1 µM]	-5%	/	/
Cn1nnnc1SCCNCc1ccncc1	5.7%	-2%	-2%	3%	6%	-13%	-7%	0%
O=C(O)CCCC(=O)Nc1ccccc1C(=O)N1CCCC1	2.4%	-11%	-2%	10%	6%	-16%	?	22%[46.1 µM]
COc1cc2ccccc2cc1C(=O)NC(=S)Nc1cc(C(=O)O)ccc1C	/	-6%	-1%	/	-6%	-27%	/	17%[46.1 µM]
O=C(CSc1nnc(-c2ccncc2)o1)Nc1ccccc1C(F)(F)F	/	4%	2%	/	1%	-7%	1%	-3%
CCOc1ccccc1CNC(=O)c1[nH]c2ccccc2c1Sc1ccccc1	-6.0%	/	/	16%	3%[46.1 µM]	-24%	/	-12%[46.1 µM]
O=c1cc(C=NNc2ccccc2)[nH]c(=O)[nH]1	/	107%	/	/	9%	1%	/	-8%
CN1CCN(c2ccc(S(=O)(=O)N3CCCCC3)cc2NC(=O)c2cccc([N+](=O)[O-])c2)CC1	/	-4%	1%	/	/	-3%	1%	/
CCN(c1ccccc1)S(=O)(=O)c1ccc(C(=O)NCC(c2cccs2)N(C)C)cc1 (stereo unspecified)	/	3%	-4%	/	?	-22%	-2%	?
COc1cccc(NC(=O)c2c(-c3ccc(C)cc3)nnc3ccccc23)c1	0.0%	/	/	-28%	15%[46.1 µM]	34%[activator]	/	/
COc1cccc(CC(NC(C)=O)C(=O)NC2CCN(C(=O)Nc3ccc(C)cc3)CC2)c1 (stereo unspecified)	/	11%	-4%	/	/	-9%	-1%	10%[46.1 µM]
O=C(CCc1ccccc1)Nc1nnc(-c2ccc3c(c2)OCCO3)o1	/	-4%	-4%	/	?	26%	/	13%
CCCCCC(=O)N1CCCC1	/	4%	-3%	/	-1%	11%	6%	3%[46.1 µM]
CC(=O)c1cccc(OCc2cc(C(=O)N3C[C@@H](C)O[C@@H](C)C3)no2)c1	/	0%	0%	/	?	37%[activator]	0%	?
COc1ccc(-c2oc3ncnc(NCCN4CCOCC4)c3c2-c2ccc(OC)cc2)cc1	-11%	-10%	0%	?	?	?	-147%	?
Cc1cc(NC(=O)CSc2nc3c(cnn3-c3cccc(Cl)c3)c(=O)[nH]2)no1	/	16%	1%	/	-57%	-3%	/	?
COC(=O)Cc1ccc(NC(=S)NNC(=O)c2ccccc2Br)cc1	-0.4%	-1%	6%	6%	29%	6%	3%	?
COc1cc(C2CC(=O)Nc3c2c(C)nn3-c2nncc(-c3ccccc3)n2)cc(OC)c1OC (stereo unspecified)	-5.8%	/	/	?	?	10%	/	-29%[46.1 µM]
CCc1ccc2c(c1)cc(CN(C(=S)Nc1ccccc1)C1CC1)c1nnnn12	-2.6%	2%	3%	3%	-14%	24%	4%	?
O=C(OCC(=O)N1CCC(Cc2ccccc2)CC1)c1ccccc1	/	12%	2%	/	1%	40%[activator]	/	22%[46.1 µM]
Clc1cccc(/C=N/N2CCN(Cc3ccccc3)CC2)c1	/	-2%	24%	/	/	60%[activator]	-2%	/
Cc1noc(C)c1C(=O)NCCc1ccccc1	3.3%	0%	0%	13%	-9%	32%[activator]	5%	2%
Cc1ccc(S(=O)(=O)CC2CSc3nc(N)cc(=O)n32)cc1 (stereo unspecified)	0.9%	5%	?	-7%	18%	0%	13%	-2%
O=C(NC1CCCCC1)C12CC3CC(CC(Cl)(C3)C1)C2	-3.6%	16%	-9%	0%	-11%	0%	2%	-10%
Cc1cccc(C)c1OCC(=O)Nn1c(=O)[nH]c2ccccc2c1=O	/	6%	-2%	/	1%[46.1 µM]	-3%	12%	-1%[46.1 µM]
O=C(COc1coc(CN2CCc3ccccc32)cc1=O)NCCc1ccccc1	/	-2%	-9%	/	9%	-9%	/	10%
Cc1ccc(S(=O)(=O)N2CC(C)N(C(=O)N3CCOCC3)C2)cc1 (stereo unspecified)	/	-1%	0%	/	/	3%	-2%	14%[46.1 µM]
Cc1cccc(OCCCC(=O)NNC(=O)c2ccncc2)c1	/	4%	-3%	/	3%	-19%	/	10%[46.1 µM]
Cc1cccc(C(=O)NCC(c2cccs2)S(=O)(=O)c2cccs2)c1 (stereo unspecified)	-1.1%	/	/	-2%	0%[46.1 µM]	0%	/	/
Cc1cccc(NC(=O)CSCC(=O)Nc2cc(S(=O)(=O)N3CCOCC3)ccc2OC(C)C)c1	/	-23%	-1%	/	-8%	14%	/	-21%
CCCn1c(C2CCCN2c2nc(-c3cccc(Br)c3)cs2)nc2cc(Cl)c(Cl)cc21 (stereo unspecified)	/	-4%	6%	/	/	-1%	26%	/
CN1CCN(c2ccc(Cl)cc2NC(=O)C2COc3ccccc3O2)CC1 (stereo unspecified)	1.6%	-8%	-17%	12%	?	-27%	-41%	?
Cc1c(C(=O)NCc2ccc(F)cc2)sc2nc(-c3ccc(F)cc3)cn12	-4.4%	/	/	1%	-12%[46.1 µM]	-16%	/	/
Cc1ccc(-c2nnn(CC(=O)N(c3cccc(F)c3)C(C(=O)NC(C)(C)C)c3ccco3)n2)o1 (stereo unspecified)	/	-1%	0%	/	-3%	-7%	0%	?
C=CCNS(=O)(=O)CC12CCC(CC1=O)C2(C)C (stereo unspecified)	5.1%	6%	3%	-13%	4%	14%	5%	14%[46.1 µM]
Cc1ccc(-c2nc(NC(=O)c3ccc(S(=O)(=O)N(CCC#N)CCC#N)cc3)sc2-c2ccccc2)cc1	-0.7%	-20%	10%	2%	26%	?	7%	?
CC1CCC(=C(C#N)C(=O)Nc2cccc(Cl)c2)CC1 (stereo unspecified)	-7.3%	3%	0%	11%	2%	/	-11%	1%
COc1nccnc1NS(=O)(=O)c1ccc(NC(=S)NC(=O)c2ccc(F)cc2)cc1	-8.6%	-4%	-21%	-12%	-1%	52%[activator]	11%	2%
CCOC(=O)Cn1cnc2c(cnn2-c2ccc(OC)cc2)c1=O	/	2%	?	/	3%[46.1 µM]	26%	-4%	?
O=C(Nc1c[nH]c(=O)[nH]c1=O)c1ccccc1Br	/	-5%	-6%	/	/	-9%	-2%	/
CNC1=CC(=O)CC(c2ccccc2)C1 (stereo unspecified)	/	8%	-1%	/	/	-8%	2%	/
CC(C)Oc1cccc(C(=O)C2CCCN(C3CCOCC3)C2)c1 (stereo unspecified)	/	-3%	1%	/	12%[46.1 µM]	-6%	0%	6%[46.1 µM]
Nn1c(SCC(=O)Nc2ccc3c(c2)OCO3)nncc1=O	/	10%	5%	/	2%[46.1 µM]	20%	/	-14%[46.1 µM]
CCN1CCN(C(=O)CN(c2ccc(F)c(Cl)c2)S(C)(=O)=O)CC1	/	-17%	0%	/	1%[46.1 µM]	-24%	/	?
CCCCn1c(N)c(N(CC(C)C)C(=O)COC(=O)Cc2cccc(OC)c2)c(=O)[nH]c1=O	/	1%	1%	/	-22%	-17%	/	-15%
COc1cccc(OC)c1NC(=O)C1CCCN1C(=O)NCc1ccccc1 (stereo unspecified)	5.7%	8%	-2%	-2%	1%	-3%	-3%	?
CC(C)(C)C(=O)Nc1ccnn1C1CCN(C(=O)c2cccc(Cl)c2)CC1	/	0%	-3%	/	-3%	1%	5%	0%
Cc1ccc(S(=O)(=O)N2CCOCC2)cc1NC(=O)CSc1ccc(Cl)cc1	/	3%	/	/	-6%	-4%	/	-27%
O=C(/C=C/c1ccc(F)cc1)N1CCCc2ccccc21	/	-1%	-9%	/	/	25%	/	2%[46.1 µM]
CC(=O)Nc1ccc2nc(NC(=O)c3ccc([N+](=O)[O-])o3)sc2c1	/	-5%	4%	/	?	-16%	3%	?
O=C(C[C@H]1C(=O)N(c2ccc(F)c(F)c2)C[C@@H]1Cc1ccccc1)Nc1ccccc1	/	24%	-22%	/	/	-10%	17%	/
CC(C)CCn1c(=O)c2cccnc2n(CC(=O)Nc2ccc(F)cc2)c1=O	-4.2%	/	/	-6%	/	-1%	/	3%[46.1 µM]
COc1ccccc1N1CCN(S(=O)(=O)CCNC(=O)c2cc(OC)c(OC)c(OC)c2)CC1	/	-2%	-2%	/	/	?	-3%	/
COc1ccc(N2CCN(c3ncnc4onc(-c5ccc(F)cc5)c34)CC2)cc1	-6.3%	/	/	0%	-20%[46.1 µM]	?	/	/
O=C(C1CCCN1S(=O)(=O)c1ccc(Cl)c(Cl)c1)N1CCOCC1 (stereo unspecified)	2.5%	-4%	8%	1%	1%	-8%	0%	-6%[46.1 µM]
Cc1ccc(NC(=S)N2CCC(NC(=O)C3CCCCC3)CC2)cc1C	/	28%	-2%	/	7%	-11%	5%	1%[46.1 µM]
CN(Cc1nc(-c2ccc(Cl)cc2)no1)C(=O)c1ccco1	/	8%	0%	/	8%[46.1 µM]	16%	-5%	?

From PubChem BioAssay
